Screens from PubChem.
KCNQ2 inh – KCNQ2 potassium channel inhibitors, primary screen, cell-based, CHO-K1, FluxOR thallium flux, B-score (AID 2156). Potassium voltage-gated channel subfamily KQT member 2 (Rattus norvegicus), O88943. 20 min; active compounds read low; only compounds with negative scores are shown here; some inactives read as strong as hits. B-score at 10 µM. hit rate 1.1% among 310,000;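 active means fluorescence ratio B-score at most minus 3 library SDs, with starting brightness B-score within 2 library SDs, cut at about -5.5 in these data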
Target sequence (O88943 whole entry, looked up): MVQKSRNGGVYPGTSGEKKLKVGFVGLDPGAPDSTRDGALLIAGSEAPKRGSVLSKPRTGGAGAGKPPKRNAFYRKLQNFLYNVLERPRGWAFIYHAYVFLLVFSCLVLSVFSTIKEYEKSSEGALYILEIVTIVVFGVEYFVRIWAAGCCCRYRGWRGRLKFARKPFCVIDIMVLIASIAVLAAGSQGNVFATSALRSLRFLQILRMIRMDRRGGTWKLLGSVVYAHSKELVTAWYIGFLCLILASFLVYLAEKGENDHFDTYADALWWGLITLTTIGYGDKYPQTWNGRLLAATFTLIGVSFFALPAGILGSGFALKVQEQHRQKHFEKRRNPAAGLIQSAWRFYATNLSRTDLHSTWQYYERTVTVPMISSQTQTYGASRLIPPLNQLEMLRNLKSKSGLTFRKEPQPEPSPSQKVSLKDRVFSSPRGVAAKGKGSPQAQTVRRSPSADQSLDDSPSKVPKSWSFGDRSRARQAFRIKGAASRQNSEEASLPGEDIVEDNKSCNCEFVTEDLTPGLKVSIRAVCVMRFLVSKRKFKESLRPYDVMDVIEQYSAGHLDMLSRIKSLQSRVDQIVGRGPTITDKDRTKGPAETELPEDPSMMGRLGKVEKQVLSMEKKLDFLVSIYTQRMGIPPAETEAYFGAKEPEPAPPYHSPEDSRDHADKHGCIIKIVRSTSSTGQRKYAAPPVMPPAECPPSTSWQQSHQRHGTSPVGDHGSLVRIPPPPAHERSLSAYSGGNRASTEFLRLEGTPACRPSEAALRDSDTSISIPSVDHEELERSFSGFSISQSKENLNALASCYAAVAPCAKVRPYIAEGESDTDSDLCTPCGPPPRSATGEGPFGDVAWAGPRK
KCNQ2 inh baseline – further read-out of KCNQ2 inh, marked with its call; B-score; measured here: initial fluorescence intensity artifact check;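 brightness before thallium and not channel activity; 0 = typical well and far values either way flag optical interference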
Numbers without * were called inactive; i = inactive.

SMILES	KCNQ2 inh	KCNQ2 inh baseline
CCOC(=O)c1cnc(SCC(=O)Nc2ccc(N3CCOCC3)cc2)nc1N	i	0.72
Cc1cccc(C)c1NC(=O)CNC(=O)Cc1ccc(Br)cc1	i	0.66
COc1ccc(CN2C(=O)CCCc3ccccc32)cc1	i	-1.17
CCC1(CC)NC(=O)N(CC(=O)OCC(=O)Nc2ccccc2[N+](=O)[O-])C1=O	i	-2.52
CCN1C(=O)[C@H]2[C@@H](c3ccc(C)cc3)N3C(=O)N(c4cccc(C)c4)C(=O)[C@@]3(Cc3ccccc3)[C@H]2C1=O	i	0.99
Cc1cc([N+](=O)[O-])cnc1Sc1nccn1C	i	-0.34
CCc1nc(SCC(=O)N2CCCc3ccccc32)c2oc3ccccc3c2n1	i	0.82
CCn1nc(C)c(CN2CCc3c([nH]c4ccccc34)C2C(C)(C)C)c1C (stereo not drawn)	i	-1.09
O=C(N/N=C/c1ccccc1F)c1ccc(COc2ccccc2Cl)o1	i	-0.54
O=C(COc1ccc(F)cc1)NN1C(=O)CSC1=S	i	0.35
O=C(Nc1ccc(Cl)cc1)Nc1nc(-c2sccc2Br)cs1	i	3.26
COc1ccc(NC(=S)NCc2ccccc2Cl)c(OC)c1	i	-0.96
Cc1ccc(CNC(=O)CCc2nc3ccccc3c(=O)[nH]2)cc1	i	0.67
O=S(=O)(c1ccccc1F)N1CCN(C(=S)NCc2ccccc2)CC1	i	0.37
CCN(CC)c1ccc(NC(=O)CCNS(=O)(=O)c2ccc3c(c2)CCC(=O)N3)c(C)c1	i	0.39
CC1CCN(C(=O)C2CCN(CCCc3ccccc3)CC2)CC1	i	0.37
CC(C)(C)SCCNC(=O)CN(c1ccc(F)cc1)S(C)(=O)=O	i	0.58
COc1cccc(CNS(=O)(=O)c2ccc3c(c2)N(C(C)=O)CCS3)c1	i	1.74
O=C(Cc1c[nH]c2ccccc12)Nc1ccccc1N1CCOCC1	i	2.03
CC(=O)N(c1ccc(C(C)C)cc1)C1C=CS(=O)(=O)C1 (stereo not drawn)	i	-0.07
CCn1cc(S(=O)(=O)NCCc2ccc(OC)c(OC)c2)cn1	i	-0.01
CCNc1nc(Oc2ccc(OC)cc2)cc(C(F)(F)F)n1	i	-0.49
COc1cccc(NC(=O)CNS(=O)(=O)c2ccc(Cl)cc2)c1	i	-0.97
CCOc1ccc(/C(O)=C2/C(=O)C(=O)N(CCOCCO)C2c2cccnc2)cc1 (stereo not drawn)	i	0.47
CCOc1ccc(NC(=O)CCC(=O)NNC(=O)Nc2ccc(Cl)cc2)cc1	i	0.18

Whole records, looked up by structure:
Listed for O=C(N/N=C/c1ccccc1F)c1ccc(COc2ccccc2Cl)o1 : KCNQ2 inh: i; KCNQ2 inh baseline: -0.54
Listed for COc1ccc(CN2C(=O)CCCc3ccccc32)cc1 : KCNQ2 inh: i; KCNQ2 inh baseline: -1.17

Following part
SMILES	KCNQ2 inh	KCNQ2 inh baseline
COc1cccc(NC(=S)N(CCCN2CCCC2)Cc2ccco2)c1	i	0.4
O=C(CCn1c(=S)oc2ccccc21)NC1CCCCCC1	i	-1.53
CC(C)CC(=O)Nc1c(C(=O)N2CCN(Cc3ccccc3)CC2)oc2ccccc12	i	-0.16
O=C(c1cc(-c2cccnc2)nc2ccc(Cl)cc12)N1CCN(S(=O)(=O)c2cccs2)CC1	i	-0.02
NCCNC[C@@H]1COC2(CCCCCCCCCCC2)O1	i	0.67
CC(C)=CCc1cc([C@@H]2CC(=O)c3ccc(O)c(CC=C(C)C)c3O2)ccc1O	-9.02*	0.28*
COCCN(CCOC)S(=O)(=O)c1ccc(OC)cc1	i	0.51
COc1cc(C)c(Cl)c(C)c1S(=O)(=O)NCc1cccnc1	i	-1.34
COc1ccc(NC(=O)CC(C)=O)c(OC)c1	i	-0.48
Cc1ccc(-c2c(C(=O)N/N=C/c3ccc(C)o3)nnn2-c2nonc2N)cc1	i	1.87
CCOc1cc(/C=N/NC(=O)c2nn(C)cc2Br)ccc1OCc1ccccc1	i	0.1
CCOc1ccccc1NC1=C(Cl)C(=O)N(Cc2ccccc2)C1=O	i	-1.59
COC(=O)C1CCCCN1C(=O)c1cccc(OC2CCN(C(=O)C3CC3)CC2)c1 (stereo not drawn)	i	0.17
CCOC(=O)C1=C(C)Nc2nc(C)nn2C1c1ccc(C)cc1 (stereo not drawn)	i	-1.24
COCCC(=O)Nc1ccc2c(c1)CN(C(=O)CSC)CC2	i	1.25
O=S(=O)(Nc1ccccc1N1CCCCC1)c1ccc(Cl)s1	i	1.4
CCn1c(SCC(=O)Nc2nc(C)c(C)s2)nc2cccnc21	i	-1.11
CC(OC(=O)c1cc2sccc2n1C)C(=O)NCc1ccco1 (stereo not drawn)	i	-0.08
O=C(NCC1CC1)C1(C(F)(F)F)C/C(=C\Cc2ccccc2)CCCO1 (stereo not drawn)	i	1.03
N#CCn1cnc2sc(-c3ccccc3)cc2c1=O	i	0.04
CC(=O)Nc1nonc1-c1nc2ccccc2n1CC1CC1	i	-2.93
Cc1c2ccccc2cc[n+]1CCCS(=O)(=O)[O-]	i	1.46
COc1ccccc1C(=O)NC(=S)Nc1cccc2cc(O)ccc12	-7.93*	-3.31*
CC(=O)N1N=C(c2ccco2)CC1c1ccc(Br)cc1 (stereo not drawn)	i	0.12
COc1ccc(C(=O)NC2CC3CCCC(C2)N3CC(C)C)cc1 (stereo not drawn)	i	0.04

Some values from the list.
KCNQ2 inh baseline result of CC(=O)Nc1nonc1-c1nc2ccccc2n1CC1CC1 reads -2.93
KCNQ2 inh baseline result of O=C(NCC1CC1)C1(C(F)(F)F)C/C(=C\Cc2ccccc2)CCCO1 (stereo not drawn) reads 1.03
KCNQ2 inh baseline result of COCCC(=O)Nc1ccc2c(c1)CN(C(=O)CSC)CC2 reads 1.25
KCNQ2 inh baseline result of O=C(CCn1c(=S)oc2ccccc21)NC1CCCCCC1 reads -1.53

Retrieved by compound from above, two records:
SMILES	KCNQ2 inh	KCNQ2 inh baseline
O=C(c1cc(-c2cccnc2)nc2ccc(Cl)cc12)N1CCN(S(=O)(=O)c2cccs2)CC1	i	-0.02
COCCC(=O)Nc1ccc2c(c1)CN(C(=O)CSC)CC2	i	1.25

Following part:
SMILES	KCNQ2 inh	KCNQ2 inh baseline
O=C(O)c1ccc(N/N=C/c2cn(-c3ccccc3)nc2-c2cccs2)cc1	i	0.23
Cc1cc(C)n2cc(CSc3ncccc3C(=O)O)nc2n1	i	1.06
O=C(Nc1cccc(S(=O)(=O)N2CCCCC2)c1)C1CC(=O)N(Cc2ccco2)C1 (stereo not drawn)	i	0.63
CCC(Sc1nc(C)cc(=O)[nH]1)C(=O)Nc1nc(-c2ccccc2)cs1 (stereo not drawn)	i	-0.72
CCOc1ccccc1N1CCN(c2ncnc3scc(-c4ccc(OC)cc4)c23)CC1	i	-0.74
CN(Cc1ccc(OC(F)F)cc1)Cc1nc2c(Br)cc(Br)cc2c(=O)[nH]1	i	2.38
COc1ccc(NC(=O)[C@H](COCc2ccccc2)NC(=O)OC(C)(C)C)cc1	i	-0.5
O=C(Nc1ccc(N2CCCC2=O)cc1)c1cncc(Br)c1	i	0.03
O=C(CCCc1cccs1)Nc1ccc2c(c1)OCO2	i	0.78
Clc1ccc(CN2CCN(/N=C/c3ccco3)CC2)cc1	i	-1.13
O=C(Nc1ccccc1Oc1ccccc1)c1cccc([N+](=O)[O-])c1	i	-0.55
O=C(CNc1ccccc1)N/N=C/c1cc([N+](=O)[O-])ccc1N1CCCC1	i	-0.46
O=C1CC2(CCCCC2)Oc2ccc(Cl)cc21	i	-0.68
O=C(NCc1ccco1)c1cnn2c(C(F)F)cc(-c3ccccc3)nc12	i	-0.23
CCOC(=O)N1CCC(NC(=O)CS(=O)Cc2nc(-c3ccc(OC)c(OC)c3)oc2C)CC1 (stereo not drawn)	i	1.17
C=C(C(=O)c1ccccc1)C(CC(=O)c1ccccc1)c1ccccc1 (stereo not drawn)	i	0.99
Cc1ccc(C(CNC(=O)C(=O)Nc2ccc3c(c2)OCCO3)N2CCN(C)CC2)cc1 (stereo not drawn)	i	-0.82
CCSc1ccccc1-c1nc(-c2ccncc2)no1	i	-0.79
O=C(Cn1cnc2c(nnn2-c2cccc(Cl)c2)c1=O)N1CCOCC1	i	-1.5
c1ccc2oc(SCc3nc4ccccc4s3)nc2c1	i	-1.22
Cn1cnnc1SCC(=O)NCc1ccccc1	i	-0.01
COCCCNC(=S)NCCNc1nc2cc(C)cc(C)c2cc1C#N	i	1.54
O=C(c1ccc(OC2CCN(CCc3ccccc3)CC2)cc1)N1CCCC(CO)C1 (stereo not drawn)	i	0.61
Cc1cccc(NC(=O)c2ccc(C3SCC(=O)N3CCc3ccccc3)cc2)c1C (stereo not drawn)	i	-0.27
CCCNc1c(NC(=O)C2CCC(C)CC2)c(=O)oc2ccccc12 (stereo not drawn)	i	-0.16

Four of the compounds above, with two lines to a compound:
Each structure is followed by: KCNQ2 inh	KCNQ2 inh baseline
O=C(Nc1cccc(S(=O)(=O)N2CCCCC2)c1)C1CC(=O)N(Cc2ccco2)C1 (stereo not drawn)
→ i	0.63
CCOc1ccccc1N1CCN(c2ncnc3scc(-c4ccc(OC)cc4)c23)CC1
→ i	-0.74
CCC(Sc1nc(C)cc(=O)[nH]1)C(=O)Nc1nc(-c2ccccc2)cs1 (stereo not drawn)
→ i	-0.72
O=C(c1ccc(OC2CCN(CCc3ccccc3)CC2)cc1)N1CCCC(CO)C1 (stereo not drawn)
→ i	0.61

Going on with the list:
SMILES	KCNQ2 inh	KCNQ2 inh baseline
NNC(=O)C(=O)NCCCN1CCOCC1	i	-0.02
CCOC(=O)c1nn(-c2ccc(OCC)cc2)c2nc(-c3ccco3)c(C#N)c(=O)n12	i	0.68
Cc1ccc2[nH]c(=O)c3cc(C(=O)N(C)c4ccccc4C)sc3c2c1	i	3.48
OCc1nc2nc(Cl)c(Cl)nc2[nH]1	i	2.98
CCOc1ccc(CSC2=NCCN2)cc1[N+](=O)[O-]	i	-1.14
Cc1ccccc1OC(C)C(=O)NCc1cccnc1 (stereo not drawn)	i	-0.47
COc1ccc(NC(=O)CS(=O)c2ccc(F)cc2)cc1 (stereo not drawn)	i	-0.87
O=C(CCN1C(=O)C2C3CCC(C3)C2C1=O)Nc1ccc([N+](=O)[O-])cc1 (stereo not drawn)	i	1.14
COc1ccc(NC(=O)CSc2nc3ccccc3nc2N2CCCC2)cc1	i	-0.12
CCN(CC(=O)NCc1ccc(Cl)cc1)C(=O)COc1ccc(Cl)cc1Br	i	0.2
O=C(Nc1ccccc1Cl)c1ccc(=O)[nH]n1	i	-0.14
CC(=O)Nc1ccc(OCC(O)Cn2c(C)nc3ccccc32)cc1 (stereo not drawn)	i	-1.02
Cc1ccc2[nH]c(=O)c(C3C(C#N)=C(N)Oc4c3ccc3cccnc43)cc2c1 (stereo not drawn)	i	-1.26
COc1ccc(C)cc1S(=O)(=O)Nc1ccc2c(c1)OCCO2	i	-0.78
Cc1nc(NCC2CCCO2)nc2c1C(=O)CC(C)(C)C2 (stereo not drawn)	i	1.02
CCc1ccc(NC(=O)N(CCCN2CCOCC2)C(C)c2cc3cccc(OC)c3o2)cc1 (stereo not drawn)	i	0.14
COC(=O)c1ccc2[nH]cc(CCO)c2c1	i	0.22
O=C(CSc1nnc(-c2ccco2)o1)NC(=O)Cc1ccccc1	i	1.16
C=CCn1c(COc2ccccc2F)nnc1SCC(=O)Nc1cc2oc3ccccc3c2cc1OC	i	-0.01
N#Cc1cc2c(ccc3ccccc32)oc1=O	i	-1.35
COc1cc(OC)c(NC(=O)c2cccc(F)c2)cc1Cl	i	-1.11
Cc1ccc(CNC(=O)CNC(=S)N(Cc2ccccc2)Cc2ccccc2F)cc1	i	-0.63
Cc1cccc2sc(NC(=O)c3ccc(Cl)s3)nc12	i	1.06
Cc1cc(NC(=O)CSCC(=O)Nc2ccccc2N2CCCCC2)no1	i	-0.07
CCN(CC)S(=O)(=O)c1cccc(-c2n[nH]c(=S)n2Cc2ccccc2)c1	i	1.05

Next section:
SMILES	KCNQ2 inh	KCNQ2 inh baseline
Cc1ccc(-c2cc(C(=O)Nc3nccs3)c3ccccc3n2)c(C)c1	i	-2.11
O=C(Cn1c(Cc2ccccc2)nc2ccccc21)NCc1ccc2c(c1)OCO2	i	-0.01
CC1CN(c2nc3c(c(=O)n(C)c(=O)n3C)n2Cc2c(F)cccc2Cl)CC(C)O1 (stereo not drawn)	i	1.03
O=C(COc1ccc(Cl)cc1)NCCN1CCCCC1	i	0.23
Cc1ccc(/C=N/NC(=O)Cc2ccc(O)cc2)s1	i	-1.13
COc1cc(/C=N/NC(N)=O)cc(Br)c1OCc1ccc(C)cc1	i	0.72
COc1cccc(C(=O)NC(=S)Nc2nnn(C)n2)c1	i	0.03
Cc1ccccc1OCC(=O)Nc1nnc(COc2ccccc2)s1	i	0.54
CC(=O)Nc1sc2c(c1C#N)CCCCC2	i	-0.75
CSc1nc(Cc2ccc(Cl)cc2)nc2ccccc12	i	2.67
Clc1c(CSc2nc3ccccc3o2)nc2sccn12	i	2.39
COc1ccccc1/C=C/C(=O)OCCCN(C)C	i	-0.82
O=C(/C=C/c1ccc(Cl)c([N+](=O)[O-])c1)Nc1cccnc1	i	-0.32
COc1cc(/C=N/NC(=O)C(N)=O)ccc1OCC(=O)N1C(C)CCCC1C (stereo not drawn)	i	0.42
N#CC1=C(N)N=C(SCc2cccc3ccccc23)C(C(N)=O)C12CCCCC2 (stereo not drawn)	i	0.05
O=C(CSCc1cccc(Br)c1)N=Nc1c(O)[nH]c2ccccc12	i	0.01
COc1ccc(/C=C/C(=O)C2CC2)cc1Cn1nc(C)c([N+](=O)[O-])c1C	i	0.2
Cn1c(CNC(=O)c2cccs2)nnc1SCC(=O)Nc1ccccc1	i	-0.32
Cc1oc(-c2ccc(Cl)cc2)nc1CN1CCCN(C(=O)c2ccco2)CC1	i	-1.17
Cc1ccc(Cn2ccc(NC(=O)c3nn(C)cc3[N+](=O)[O-])n2)cc1	i	-1.43
Cc1ccc(-c2csc3ncnc(Nc4ccc(N5CCOCC5)cc4)c23)cc1	i	-0.78

Not all compounds are listed; the hit share may differ from the screen's.
